TRPML1 ag: qHTS for Agonists of the Human Mucolipin Transient Receptor Potential 1 (TRPML1). TRPML1-expressing cells, Ca2+ dye fluorescence, FDSS; host cell line not named in the record; reference of the full effect not given here. activation, % (test concentration not listed). 410,000 tested, 0.12% active. AID 624414, 2012; in the data active = activation above about 50%; inconclusive = about 30% to 50%; inactive = below about 30%; further: 0% is about no effect; the text of the record puts the active cut at 80%
Target sequence (Q9GZU1 whole entry, looked up): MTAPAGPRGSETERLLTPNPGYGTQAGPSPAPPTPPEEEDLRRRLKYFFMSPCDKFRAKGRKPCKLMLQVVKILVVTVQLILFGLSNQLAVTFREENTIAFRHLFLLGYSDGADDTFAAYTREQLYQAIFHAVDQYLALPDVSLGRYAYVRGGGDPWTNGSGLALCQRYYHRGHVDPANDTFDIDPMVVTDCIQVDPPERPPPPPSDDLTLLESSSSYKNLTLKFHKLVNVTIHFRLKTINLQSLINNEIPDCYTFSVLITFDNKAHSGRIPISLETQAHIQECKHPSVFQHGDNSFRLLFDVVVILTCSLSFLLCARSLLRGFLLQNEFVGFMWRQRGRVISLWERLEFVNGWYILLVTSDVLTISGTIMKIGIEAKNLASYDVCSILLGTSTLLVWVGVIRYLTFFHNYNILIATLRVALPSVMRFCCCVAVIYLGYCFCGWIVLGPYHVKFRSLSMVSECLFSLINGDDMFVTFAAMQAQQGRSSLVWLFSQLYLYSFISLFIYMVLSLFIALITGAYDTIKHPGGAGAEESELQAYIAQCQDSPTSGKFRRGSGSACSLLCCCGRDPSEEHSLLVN
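Cells: TRPML1-DL, 1X Tet inducer, ~16 h at 37 degrees C/5% CO2. Dye: ABD Ca8 no-wash + quencher, 45-90 min RT. Read: 10 s baseline, compound add, 110 s agonist phase; 54-4 EC80 (4uM final), 110 s antagonist phase.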
Six1-Eya2 inh: qHTS Assay for Inhibitors of the Six1/Eya2 Interaction | Homeobox protein SIX1 (Homo sapiens) + Protein phosphatase EYA2 (Homo sapiens), … | AlphaScreen GST-Six1/His-Eya2 binding, biochemical; hits give low values; control for the full effect not named in the record | 360,000 tested, 0.56% active | activity change, % (concentration not given with the values) | AID 651725, 2012; in the data active = activity change below about -65%; inconclusive = about -30% to -65%; inactive = above about -30%; further: on the % scale 0 is the no-effect control and ±100 the full control effect
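Homogeneous AlphaScreen proximity assay pairing GST-Six1 with His-tagged Eya2 (added as 5X mix: 250 nM and 500 nM) in 50 mM Tris pH 8.0, 300 mM NaCl, 1 mM TCEP. Glutathione donor and nickel acceptor beads; 1 h, 37 °C, dark.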
TRPML1 inh: qHTS for Inhibitors of the Human Mucolipin Transient Receptor Potential 1 (TRPML1) | 390,000 tested, 0.02% active | AID 624415, 2012 | Mucolipin-1 (Homo sapiens), Q9GZU1 | TRPML1-inducible cells, Ca2+ dye fluorescence, FDSS; hits give low values; inhibition of EC80 agonist-evoked calcium signal | activity change, negative = inhibition, % (no concentration beside the values); in the data active means activity change below about -50%; inconclusive means about -30% to -50%; inactive means above about -30%;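 further: stimulus is agonist 54-4 at its EC80 concentration; on the % scale 0 is the no-effect control and ±100 the full control effect; compound concentration not given in the record; the text of the record puts the active cut at -80%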
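Tet-induced TRPML1-DL cells loaded with Ca8 no-wash calcium dye were read kinetically on FDSS. Compound addition was followed by EC80 agonist 54-4 (4 uM final); inhibition was read over 110 s.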
D2 potentiator: Beta-Arrestin HTS for Positive Allosteric Modulators of the Human D2 Dopamine Receptor: Potentiators. D(2) dopamine receptor (Homo sapiens), P14416. 360,000 tested, 0.23% active. potentiation, % (no concentration beside the values). DiscoveRx D2 beta-arrestin cells, luminescence, 90 min; 100% = 57 uM dopamine signal; active = potentiation of 50% or more; inconclusive = 30% to 50%; inactive = 30% or less;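 further: compound concentration not given in the record; tested on top of an EC20 dose of dopamine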
Target sequence (P14416 whole entry, looked up): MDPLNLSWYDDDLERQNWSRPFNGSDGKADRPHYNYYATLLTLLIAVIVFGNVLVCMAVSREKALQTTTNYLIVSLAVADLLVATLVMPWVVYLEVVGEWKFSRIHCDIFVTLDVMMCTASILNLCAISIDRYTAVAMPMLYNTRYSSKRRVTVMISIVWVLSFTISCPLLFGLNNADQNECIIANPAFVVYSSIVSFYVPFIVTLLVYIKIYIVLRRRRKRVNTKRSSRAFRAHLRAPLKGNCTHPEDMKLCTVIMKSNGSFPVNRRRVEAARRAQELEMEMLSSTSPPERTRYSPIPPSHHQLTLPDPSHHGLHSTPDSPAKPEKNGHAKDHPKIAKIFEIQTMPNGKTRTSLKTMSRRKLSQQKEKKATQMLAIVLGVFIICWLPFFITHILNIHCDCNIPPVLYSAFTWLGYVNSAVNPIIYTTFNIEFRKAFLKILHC
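PathHunter beta-arrestin assay in DiscoveRx D2 cells. Compounds were added with an EC20 of dopamine (50 nM final) for 90 min at 37 deg C. Luminescence was read 1 h after detection reagent, with 57 uM dopamine as the EC100 control.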
PINK1 modulator: A Quantitative High throughput Screen to Identify Chemical Modulators of PINK1 Expression; PINK1 immunofluorescence, high-content cytometry, 24 h; Potency, µM (titrated, usually from 76.6 µM), for the others: at the highest dose activation (PINK1 increase), usual class: activators; 410,000 tested, 0.2% active; AID 624263, 2012; active = well fitted activation curve with a large enough effect; inconclusive = small, poorly fitted or top-dose-only effect; inactive = flat fitted curve, though single readings scatter; cell line not stated here;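 further: potency means the concentration at half of the fitted maximal effect; % of control where 0% means no effect; nearly all actives have a fitted effect of over 65% in size; a mitochondrial uncoupler was the plate control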
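PINK1 protein, normally rapidly degraded, was detected by immunofluorescence after 24 hour compound treatment of a stable cell line. Titration data (5 concentrations) came from laser-scanning cytometry, with CCCP-treated wells as controls.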
D2 agonist: Beta-Arrestin HTS for Positive Allosteric Modulators of the Human D2 Dopamine Receptor: Agonists; D(2) dopamine receptor (Homo sapiens), P14416; activation, % (concentration not given with the values); AID 624465, 2012; 360,000 tested, 0.084% active; DiscoveRx PathHunter D2 beta-arrestin, luminescence, 90 min; 100% = 57 uM dopamine signal; in the data active = activation above about 40%; inconclusive = about 15% to 40%; inactive = below about 15%; further: compound concentration not given in the record; the text of the record calls up to 30% inactive
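DiscoveRx PathHunter D2 beta-arrestin cells (2,100/well) attached overnight, then compound-stimulated 90 min at 37 C in HBSS/10 mM HEPES/0.1% Tween-20 buffer; beta-galactosidase complementation read by luminescence after 1 h at ambient temperature. Dopamine 57 uM final (EC100) as control.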
The depositor's hits bear a star; ? = inconclusive; · = not tested or not shown; [ ] = dose if it differs, or a comment. Random draw from the library; about 1% have a hit in one of these screens.

compound,TRPML1 ag,Six1-Eya2 inh,TRPML1 inh,D2 potentiator,PINK1 modulator,D2 agonist
CCCCCCOC(=O)C(C#N)c1nc2ccccc2nc1N1CCN(CC)CC1 (stereo unspecified),0.5,-28,20,21,-1.1%,0.5
Cn1cc(S(=O)(=O)NC2CCCCC2)c(=O)n(C)c1=O,-0.3,6,-6,-4,1.6%,2.5
CC(C)=C1C2C=CC1C(C(=O)Nc1cc(C)ccc1C)C2C(=O)O (stereo unspecified),1.4,13,-6,2,0.3%,-0.5
Cc1ccc(S(=O)(=O)N(C)c2ccc(C(=O)NCC(c3ccco3)N(C)C)cc2)cc1 (stereo unspecified),0.3,-3,33,-1,-1.0%,-3.0
O=S(=O)(Nc1nc2ccccc2nc1NCc1ccco1)c1ccc(Cl)cc1,-0.1,-8,5,-13,4.0%,0.6
COc1ccccc1CNC(=O)[C@H](C)NC(=O)C1CCN(C(=O)[C@@H]2CCCN2C(=O)OC(C)(C)C)CC1,·,8,·,-29,-0.7%,-6.9
O=S(=O)(Nc1nc2ccccc2nc1N1CCc2ccccc2C1)c1ccc(Cl)cc1,0.6,11,37,-4,16µM*,3.2
O=C(CP(=O)(c1ccccc1)c1ccccc1)N/N=C/c1cc(Br)cc(Br)c1O,0.7,0,0,-24,?,-6.0
CCSc1cc(C2C(C#N)=C(N)OC(C)=C2C(=O)OC)c(C)o1 (stereo unspecified),-0.3,-1,-5,-3,0.4%,1.1
COC(=O)c1ccc(OCC(O)Cn2cnc3cc(C)c(C)cc32)cc1 (stereo unspecified),1.0,·,-2,·,0.1%,·
C[C@H]1C=C(C(=O)NCc2nc3ccccc3[nH]2)O[C@@H](OCc2ccc(CO)cc2)C1,-0.7,-6,-1,-12,1.1%,-4.1
Cc1cc(OCC(=O)Nc2ccc(C(=O)OC3CCCCC3)cc2)cc(C)c1Cl,1.2,·,1,·,1.7%,·
COc1cc(NC(=O)CN2C(=O)c3ccccc3C2=O)c(C(=O)O)cc1OC,0.2,-7,-4,-1,0.5%,-1.3
COC(=O)c1cc(NC(=O)c2c(C)noc2C)ccc1N1CCOCC1,1.1,2,-17,-5,-0.5%,-0.6
CCCCn1c(CCCNC(=O)c2cccc(C)c2)nc2ccccc21,-0.8,·,6,·,0.7%,·
CC1CCC/C(=C\Nc2ccc(C(=O)O)cc2)C1=O (stereo unspecified),-0.4,6,7,-4,3.2%,2.2
COc1ccc(CN=C2NC(=O)CC(C(=O)Nc3ccc(F)cc3)S2)cc1 (stereo unspecified),-0.7,-2,0,-1,0.8%,-1.8
COCCn1c(=O)[nH]c(=O)c2cc(C(=O)c3cc(OC)ccc3O)cnc21,-0.2,-12,6,0,1.6%,-3.5
Cc1cc[n+](CC(=O)c2ccc(NC(=O)c3ccccc3)cc2)cc1,-0.3,-1,19,0,1.0%,-5.8
S=C(Cc1ccccc1)N1CCOCC1,-0.4,2,7,9,0.3%,4.8
CNc1ncnc2c1cnn2-c1ccc(C)c(C)c1,-1.0,·,15,·,-0.6%,·
Fc1ccccc1NC(=S)NN(Cc1ccccc1)c1ccccc1,1.6,-4,-6,3,1.5%[38.3 µM],-2.9
CCCCNC(=O)[C@@H]1CSC2c3ccccc3C(=O)N21 (stereo partly specified),-0.6,23,-7,-2,-1.4%,1.8
Cc1ccc(C(=O)OCC(=O)N2CC(C)CC(C)C2)cc1S(=O)(=O)N1CCOCC1 (stereo unspecified),-0.3,-11,-4,-11,2.9%,-2.4
Cc1c2cnn(-c3ccccc3)c(=O)c2c(C)n1CCCC(=O)N1CCN(C2CCCCC2)CC1,0.0,-14,-8,-3,0.3%,-0.3
Cc1nc2sc(C(c3ccccc3)N3CC(C)OC(C)C3)c(O)n2n1 (stereo unspecified),1.0,-2,50,12,-1.5%,-3.1
CCOc1ccccc1NC(=O)CCc1nnc2ccc(N3CCC(C)CC3)nn12,-0.3,5,-9,3,-1.7%,-0.4
CCSc1nnc(NC(=O)C2CCCCC2)s1,0.1,-7,3,-3,8.8%,-1.1
CSc1ccccc1-c1cnc(NC(C)=O)cn1,-0.8,-15,·,-16,0.9%,-5.6
COCCn1c(SCC(=O)NCc2ccc(OC)c(OC)c2)nc2ccccc21,-0.3,0,-4,-4,0.5%,2.0

Entries of single compounds from above. Order of values: TRPML1 ag | Six1-Eya2 inh | TRPML1 inh | D2 potentiator | PINK1 modulator | D2 agonist
CCSc1cc(C2C(C#N)=C(N)OC(C)=C2C(=O)OC)c(C)o1 (stereo unspecified) reads -0.3 | -1 | -5 | -3 | 0.4% | 1.1
COC(=O)c1cc(NC(=O)c2c(C)noc2C)ccc1N1CCOCC1 reads 1.1 | 2 | -17 | -5 | -0.5% | -0.6

Continuation:
compound,TRPML1 ag,Six1-Eya2 inh,TRPML1 inh,D2 potentiator,PINK1 modulator,D2 agonist
CCOC(=O)Cn1c(-c2ccccn2)nc2ccccc21,1.4,3,-10,-3,-0.6%,-1.9
O=Cc1c[nH]c2ccccc12,1.8,·,5,·,0.7%,·
O=C(NC1CCCC1)NS(=O)(=O)c1ccccc1Cl,0.2,3,7,-1,1.6%,0.6
COc1ccc(-c2nc(CN3CCC(C(=O)N4CCc5ccccc54)CC3)c(C)o2)cc1OC,0.2,-12,3,-11,0.7%,0.3
CN(C)S(=O)(=O)c1cccc(C(=O)NCCNC(=O)c2cccc(S(=O)(=O)N(C)C)c2)c1,·,-20,·,-8,0.2%,-4.8
Cc1cc(C)c(NC(=O)CNC(=O)COC(=O)CN2C(=O)NC3(CCCC3)C2=O)c(C)c1,4.3,8,4,1,4.4%,-2.5
O=C1CCCC2=C1C(c1ccc(Br)cc1)c1c([nH]c(=S)[nH]c1=O)N2 (stereo unspecified),-0.6,-3,19,-9,6.6%,-2.9
O=C1c2ccccc2NC(c2cccc(O)c2)N1O (stereo unspecified),2.1,-6,-4,-4,-2.5%,-10
COc1ccc(C(=O)N/N=C/C(Br)=C/c2ccccc2)cc1,-0.7,-7,11,-24,2.2%,0.3
CCOC1=C2CN(S(=O)(=O)c3ccccc3)[C@H](c3ccccc3)C[C@H]2n2c(=O)n(-c3ccccc3)c(=O)n2C1,0.8,-9,-2,-2,2.0%,-2.6
Cc1noc(-c2ccc(N3CCCCC3C)c([N+](=O)[O-])c2)n1 (stereo unspecified),0.3,·,-14,·,0.5%,·
Clc1cccc(-c2noc3ncnc(Nc4ccc5c(c4)OCO5)c23)c1,2.2,6,77,-6,0.1%,-0.9
COc1cc(OC)c(NC(=O)c2ccc3c(Cl)c4c(nc3c2)CCCC4)cc1Cl,0.3,·,3,·,3.2%,·
COc1ccc(-n2c(CNC(=O)COc3ccccc3)n[nH]c2=S)cc1,-0.2,-7,10,-4,-1.7%,7.9
CC1(C)Cc2c(C#N)c(NCC3CCCO3)nc(-c3ccco3)c2CO1 (stereo unspecified),1.5,17,1,-10,3.2%,-3.8
COc1ccc(NC(=O)c2cc(S(=O)(=O)N3CCCC(C)C3)cn2C)c(OC)c1 (stereo unspecified),0.5,·,11,·,0.3%,·
CN1CCN(c2nc(C(N)=O)cc(-c3ccccc3)n2)CC1,0.0,-1,?,-27,-0.6%,-1.9
Cc1ccccc1Cn1nnc(-c2ccc(C(=O)O)cc2)n1,-0.2,0,-4,-4,1.2%,1.0
COc1ccc(C(=O)C2CCCN(C(=O)c3cccnc3SC)C2)c(C)c1 (stereo unspecified),0.7,7,5,-4,1.5%,2.0
CCSc1nnc(NC(NC(=O)c2ccco2)(C(F)(F)F)C(F)(F)F)s1,0.0,10,6,-1,3.0%,-0.9
O=C(Nc1ccccc1)c1ccc(OC(=O)c2cc3ccccc3o2)cc1,0.5,4,-7,2,-0.1%[38.3 µM],-1.0
CC(C)(C)c1ccc(C(=O)c2c[nH]c(C(=O)NCc3cccnc3)c2)cc1,2.3,-7,-6,4,2.5%,-3.2
O=C(Cn1c(=O)[nH]n(-c2ccccc2)c1=O)N1CCCc2ccccc21,-0.9,0,9,-7,-1.7%,-3.2
Cc1ccccc1NC(=O)COC(=O)CCc1ccccc1,6.3,10,5,0,0.4%,-6.0
O=C(COC(=O)CCSc1ccc(Cl)cc1)NCc1ccccc1,0.5,6,17,-2,-1.5%,-2.4
CCC1CCCCN1CCCNC(=O)CNC(=O)Cn1ccc2ccccc2c1=O (stereo unspecified),-0.6,8,0,-8,2.3%,-1.4
CCCN(CCC)C(=O)Cn1c(=O)n(Cc2ccc(C(=O)NCCc3ccc(Cl)cc3)cc2)c(=O)c2ccccc21,-0.3,·,-6,·,0.8%,·
Cc1nn(C)cc1S(=O)(=O)N1CCN(c2ccc(F)cc2)CC1,0.2,0,1,-5,0.6%,-1.6
CC(c1nc2scc(-c3ccccc3)c2c(=O)[nH]1)N1CCN(CC(=O)NC2CC2)CC1 (stereo unspecified),0.3,2,-10,-16,1.8%,0.4

A draw from above in order of count of non-hydrogen atoms, descending.
compound,TRPML1 ag,Six1-Eya2 inh,TRPML1 inh,D2 potentiator,PINK1 modulator,D2 agonist
CC(C)(C)c1ccc(C(=O)c2c[nH]c(C(=O)NCc3cccnc3)c2)cc1,2.3,-7,-6,4,2.5%,-3.2
CCSc1nnc(NC(NC(=O)c2ccco2)(C(F)(F)F)C(F)(F)F)s1,0.0,10,6,-1,3.0%,-0.9
CCOC(=O)Cn1c(-c2ccccn2)nc2ccccc21,1.4,3,-10,-3,-0.6%,-1.9
